Bioassay records (PubChem)
StopGo RLuc = Primary qHTS Assay for Foot and Mouth Disease Virus Antivirals against NCGC Sytravon and CBC Compound Libraries: Renilla Luciferase Signal; Potency, µM (titrated, usually from 57.5 µM), without a hit: top-dose signal change, negative = less light; AID 1745857, 2022; HEK cells with a luciferase reporter of 2A StopGo recoding; 120,000 compounds, 0.32% hits; active means well fitted falling curve with a large enough effect; inconclusive means small, poorly fitted or top-dose-only effect; inactive means no such curve, though single readings can be large or run the other way; also: nearly all actives have a fitted effect of over 55% in size; overnight with compound
2A firefly = Primary qHTS Assay for Foot and Mouth Disease Virus Antivirals against NCGC Sytravon and CBC Compound Libraries: Firefly Luciferase Signal; HEK cells with a luciferase reporter of 2A StopGo recoding; Potency, µM (highest dose often 57.5 µM), for the others: at the highest dose signal change, negative = less light; 120,000 compounds, 0.23% hits; AID 1745856, 2022; active = well fitted falling curve with a large enough effect; inconclusive = small, poorly fitted or top-dose-only effect; inactive = no such curve, though single readings can be large or run the other way; also: nearly all actives have a fitted effect of over 60% in size; overnight with compound
Starred values were filed as active, the others as inactive; & = joins results of further samples; [ ] = remark or other dose. % is scaled to controls: 0 for no effect and ±100 for the full control effect; potency is read from the fitted curve at half-maximal effect.

Cc1ccc(-c2noc(-c3nnn(CC(=O)Nc4cccc(C(F)(F)F)c4)c3N)n2)cc1 was read as StopGo RLuc -7% and 2A firefly 0%.
Screening Fc1ccccc1N1CCN(c2nccn3nc(-c4ccc(Br)cc4)cc23)CC1 returned StopGo RLuc -7% and 2A firefly -8%.
For Cc1ccc(NC(=O)Nc2cccs2)c(C)c1 the results were StopGo RLuc -9% and 2A firefly -4%.
`CCOC(=O)c1cc(-c2ccc(F)cc2)n(CCC(=O)NCc2ccc(C)cc2)c1C` gave StopGo RLuc 45%[activator] and 2A firefly -3%.
For CC(C)c1ccc(C(=O)N2CCN(C(=O)c3cccc4ncccc34)CC2)cc1 the results were StopGo RLuc -10% and 2A firefly -9%.
CCOc1cc(C2C(C(=O)OC)=C(C)NC3=C2C(=O)c2ccccc23)c(Br)cc1O (stereo not given) was read as StopGo RLuc 19% and 2A firefly -6%.
For Cc1cc(S(=O)(=O)Nc2ccc(O)c(Sc3nc4ccccc4s3)c2)ccc1Cl the results were StopGo RLuc 52%[activator] and 2A firefly 10%.
`COc1cc(C2C(C(=O)Nc3ccc(C)cc3C)=C(C)Nc3nc(SCc4ccccc4)nn32)cc(OC)c1OC` (stereo not given) gave StopGo RLuc -6% and 2A firefly 21%.
O=C(Nc1nc2ccccc2s1)NC1CC(=O)N(c2ccc3c(c2)OCCO3)C1 (stereo not given) was read as StopGo RLuc -5% and 2A firefly 18%.
`Cc1cccc(N2CC(c3nc4ccc(C)cc4[nH]3)CC2=O)c1` (stereo not given) gave StopGo RLuc -6% and 2A firefly -1%.

Four records picked at random from the list so far:
For Cc1ccc(NC(=O)Nc2cccs2)c(C)c1 the results were StopGo RLuc -9% and 2A firefly -4%.
`CCOC(=O)c1cc(-c2ccc(F)cc2)n(CCC(=O)NCc2ccc(C)cc2)c1C` gave StopGo RLuc 45%[activator] and 2A firefly -3%.
`Cc1cccc(N2CC(c3nc4ccc(C)cc4[nH]3)CC2=O)c1` (stereo not given) gave StopGo RLuc -6% and 2A firefly -1%.
For Cc1cc(S(=O)(=O)Nc2ccc(O)c(Sc3nc4ccccc4s3)c2)ccc1Cl the results were StopGo RLuc 52%[activator] and 2A firefly 10%.

Other entries follow.
CCN1CCN(c2ccc([N+](=O)[O-])c3cnccc23)CC1 was read as StopGo RLuc -18% and 2A firefly 3%.
`COc1cc2oc(=O)c(CC(=O)N(C)C3CCS(=O)(=O)C3)c(C)c2cc1Cl` (stereo not given) gave StopGo RLuc -1% and 2A firefly -4%.
C=C(C)Cn1c(N(CC)CC)nc2c1c(=O)n(C)c(=O)n2C was read as StopGo RLuc 1% and 2A firefly 4%.
`Cc1ccnc(NC(=O)c2ccc[n+]([O-])c2)c1` gave StopGo RLuc 6% and 2A firefly 24%.
Screening COc1ccccc1Cc1nc2ccccc2nc1SCC(=O)NCc1ccccc1Cl returned StopGo RLuc -1% and 2A firefly -17%.
COc1ccc(C)cc1NC(=O)Cc1nc(-c2ccccc2)oc1C was read as StopGo RLuc -7% and 2A firefly 7%.
For Cc1ccc(C)c(Nc2nn3c(=O)c4ccc(C(=O)N(C)Cc5ccccc5)cc4nc3s2)c1 the results were StopGo RLuc 43%[activator] and 2A firefly -7%.
COc1ccc2nc(NC(=O)c3cc(-c4ccc(C)c(F)c4)on3)sc2c1 was read as StopGo RLuc 7% and 2A firefly 9%.
COCCn1cnc2c1c(=O)n(CC(=O)Nc1ccccc1F)c(=O)n2Cc1ccccc1 was read as StopGo RLuc -12% and 2A firefly -12%.
`Cc1cc(-c2nc3ncccc3o2)ccc1NC(=O)c1ccc(Cl)cc1` gave StopGo RLuc -8% and 2A firefly -1%.
For O=C(O)c1csc(-c2ccccc2)c1 the results were StopGo RLuc 13% and 2A firefly 0%.
`CCC1CCCN(C(=O)CN(C)c2ncnc3nc[nH]c23)C1` (stereo not given) gave StopGo RLuc -3% and 2A firefly 3%.
For CCCS(=O)(=O)N1CCN(c2ccc(N3CCCCC3)nn2)CC1 the results were StopGo RLuc -2% and 2A firefly 160%[activator].
Screening CCc1cc(CC)n(-c2nc3c(c(=O)n(CC)c(=O)n3C)n2CC)n1 returned StopGo RLuc 12% and 2A firefly 25%.
Screening COc1ccc(/C=C/C(=O)Nc2nc3n(n2)C(c2ccc(F)cc2)C=C(c2ccccc2)N3)cc1 (stereo not given) returned StopGo RLuc -7% and 2A firefly 18%.
N#Cc1cccc(NC(=O)CCCNC(=O)C2CC2)c1 was read as StopGo RLuc 12% and 2A firefly 46%[activator].
CC(C)(C)C(=O)Oc1ccc2c(c1)O/C(=C\c1cccs1)C2=O was read as StopGo RLuc 9% and 2A firefly 0%.
For Cn1c(SCC(=O)c2cc3cc(Cl)ccc3o2)nnc1-c1cccnc1 the results were StopGo RLuc -2% and 2A firefly 7%.
`CC(=O)c1ccc(N2CCN(c3ncnc4c3cnn4-c3cc(Cl)ccc3C)CC2)cc1` gave StopGo RLuc inconclusive and 2A firefly inconclusive.
CCOc1ccc(-n2c(SCC(=O)OC)nc3ccccc3c2=O)cc1 was read as StopGo RLuc -13% and 2A firefly -11%.
Cc1cnc2c(S(=O)(=O)N(C)CC(=O)Nc3c(C)cccc3C)cccc2c1 was read as StopGo RLuc 44%[activator] and 2A firefly 53%[activator].
`O=S1(=O)c2ccc(N3CCN(Cc4ccccc4F)CC3)cc2Oc2ccccc2CN1Cc1cn(Cc2ccc(Cl)cc2)nn1` gave StopGo RLuc 81%[activator] and 2A firefly 42%[activator].
`Cc1ccc(-n2ncc(C(=O)N3CCCCC3)c2C2CCN(C(=O)OC(C)(C)C)CC2)c(C)c1` gave StopGo RLuc 11% and 2A firefly -24%.
COc1ccc(CCn2c(N3CCN(CCO)CC3)nc3c2c(=O)[nH]c(=O)n3C)cc1 was read as StopGo RLuc -13% and 2A firefly -3%.
Screening Cc1cc(C)c2[nH]c(C)c(CN3CCCCCC3)c(=O)c2c1 returned StopGo RLuc -8% and 2A firefly -7%.
`COc1cccc(-c2nc(CSCC(=O)NCc3ccc(C)cc3)c(C)o2)c1` gave StopGo RLuc 2% and 2A firefly 9%.
Cc1cc(=O)oc2cc(O)c(CCC(=O)O)cc12 was read as StopGo RLuc -8% and 2A firefly -6%.
`COc1ccc2c(c1)c(CC(=O)Nc1ccc(C(C)=O)cc1)c(C)n2C(=O)c1ccc(Cl)cc1` gave StopGo RLuc -2% and 2A firefly 40%[activator].
For COC(=O)c1ccc(-c2ccc(CNCc3ccco3)o2)cc1 the results were StopGo RLuc -9% and 2A firefly 124%[activator].
Screening O=Cc1cc(Br)c2c(c1)OCCCO2 returned StopGo RLuc 12% and 2A firefly 5%.

Grouped by structure, the compounds so far with a COOH group
For O=C(O)c1csc(-c2ccccc2)c1 the results were StopGo RLuc 13% and 2A firefly 0%.
Cc1cc(=O)oc2cc(O)c(CCC(=O)O)cc12 was read as StopGo RLuc -8% and 2A firefly -6%.

(list continues)
Screening Cc1ccc(NC(=O)Cn2nnc(C(=O)NCCc3ccccc3)c2N)cc1 returned StopGo RLuc -3% and 2A firefly -3%.
Screening CCCNC(=O)CNC(=O)Cn1c(-c2ccccc2)cc2ccccc21 returned StopGo RLuc -7% and 2A firefly -3%.
CCOC(=O)c1[nH]c2ccccc2c1NC(=O)CN(C)C was read as StopGo RLuc -3% and 2A firefly -9%.
Screening O=C(Nc1c2c(nc3ccccc13)CCCC2)c1cccc(Cl)c1 returned StopGo RLuc 12% and 2A firefly 4%.
COc1cc(/C=C(\C#N)c2nc3ccccc3c(=O)[nH]2)cc(OC)c1OC was read as StopGo RLuc -3% and 2A firefly 19%.
CCOC(=O)c1nc2ccccc2nc1NCCc1ccc(OC)c(OC)c1 was read as StopGo RLuc -5% and 2A firefly -5%.
For O=c1c2ccsc2ncn1Cc1coc(-c2ccccc2)n1 the results were StopGo RLuc 23% and 2A firefly 38%[activator].
Screening O=C(OCc1cccc(Cl)c1)c1ccc(C2Nc3ccccc3S(=O)(=O)N2)cc1 (stereo not given) returned StopGo RLuc 7% and 2A firefly 29%.
O=C(NC1CCCC1)c1nc(-c2cccc3[nH]ccc23)no1 was read as StopGo RLuc 153%[activator] and 2A firefly 244%[activator].
Screening CCOc1cc2c(cc1CNC(=O)c1cc(S(=O)(=O)NC3CC3)c(Cl)cc1Cl)OC(C)C2 (stereo not given) returned StopGo RLuc 23% and 2A firefly 10%.

Filtered by structure: the entries above with bromine (3)
Screening Fc1ccccc1N1CCN(c2nccn3nc(-c4ccc(Br)cc4)cc23)CC1 returned StopGo RLuc -7% and 2A firefly -8%.
CCOc1cc(C2C(C(=O)OC)=C(C)NC3=C2C(=O)c2ccccc23)c(Br)cc1O (stereo not given) was read as StopGo RLuc 19% and 2A firefly -6%.
Screening O=Cc1cc(Br)c2c(c1)OCCCO2 returned StopGo RLuc 12% and 2A firefly 5%.

(cont.)
For Cc1ccccc1C(=O)Nc1cccc(C(=O)OCc2cc(=O)n3c4c(sc3n2)CCCC4)c1 the results were StopGo RLuc 0% and 2A firefly -5%.
For O=C(CCCc1c[nH]c2ccccc12)NCCNC(=O)c1ccco1 the results were StopGo RLuc 0% and 2A firefly 16%.
`Cn1cnc(S(=O)(=O)N2CCCC(C(=O)NCc3ccccc3Cl)C2)c1` (stereo not given) gave StopGo RLuc 37%&119%[activator] and 2A firefly -11%&34%.
COc1cccc(/C=C/c2nc(C#N)c(N3CCN(C(C)=O)CC3)o2)c1 was read as StopGo RLuc inconclusive and 2A firefly 16%.
Cc1ccc(C(=O)Nc2ccc(-c3nccs3)cc2)c(C)c1 was read as StopGo RLuc 4% and 2A firefly 38%[activator].
For CC(=O)c1cccc(NS(=O)(=O)c2ccc3c(c2)NC(=O)CC(=O)N3)c1 the results were StopGo RLuc -1% and 2A firefly -8%.
Cc1ccc(Cl)cc1N1CCN(C(=O)C2CCN(Cc3nc(-c4ccc(Cl)cc4)oc3C)CC2)CC1 was read as StopGo RLuc -19% and 2A firefly -12%.
For Cc1ccccc1CNC(=O)Cn1cc2c(n1)-c1c(oc(C(=O)N3CCCC3)c1C)CC2 the results were StopGo RLuc -8% and 2A firefly -7%.
For CCCNC(=O)c1cnn(-c2ccc(C)c(C)c2)c1C1CCN(C(=O)OC(C)(C)C)CC1 the results were StopGo RLuc -3% and 2A firefly -8%.
Screening COc1cc(OC)cc(C(=O)N2CCN(C(=O)COc3ccc(C)cc3)CC2)c1 returned StopGo RLuc 5% and 2A firefly 21%.
`Cc1cccc(C)c1OCC(=O)N[C@@H](Cc1ccccc1)[C@@H](O)C[C@H](Cc1ccccc1)NC(=O)[C@H](C(C)C)N1CCCNC1=O` gave StopGo RLuc inconclusive and 2A firefly -16%[11.5 µM].
Cc1ccc(-c2noc(-c3cc4ccccc4oc3=O)n2)cc1 was read as StopGo RLuc -11% and 2A firefly 12%.
`Cc1ccc(-c2csc(Nc3ccccc3)n2)cc1C` gave StopGo RLuc 3% and 2A firefly 50%[activator].
COc1ccc(CNC(=O)CCn2cccn2)cc1 was read as StopGo RLuc 4% and 2A firefly 7%.
`COC(=O)C(=O)CC(=O)c1ccc2c(c1)OCO2` gave StopGo RLuc 6% and 2A firefly 3%.
CC1CCc2c(cc(-c3ccccc3)n2-c2ccc(C(=O)NC(C)C)cc2)C1 (stereo not given) was read as StopGo RLuc inconclusive and 2A firefly -22%.
Screening CCOc1ccc(-n2c(SCC(=O)NCC3CCCO3)nc3c([nH]c4ccccc43)c2=O)cc1 (stereo not given) returned StopGo RLuc -19% and 2A firefly -11%.
Screening O=C(NCCc1ccccc1)c1ccc2c(c1)CCN2S(=O)(=O)c1ccc(Cl)cc1 returned StopGo RLuc -7% and 2A firefly 28%.
NCc1ccc(CS(N)(=O)=O)cc1 was read as StopGo RLuc 5% and 2A firefly -7%.
Screening CCOC(=O)c1c(C)[nH]c(C)c1S(=O)(=O)N(C)CC(=O)Nc1cc(Cl)ccc1C returned StopGo RLuc 26% and 2A firefly -9%.
For Cc1ccc(NS(=O)(=O)c2ccc(NN)c([N+](=O)[O-])c2)c(C)c1 the results were StopGo RLuc 19% and 2A firefly -9%.
Screening COc1ccccc1N(C)S(=O)(=O)c1ccc(C(=O)OCn2nnc3ccccc3c2=O)cc1 returned StopGo RLuc 12% and 2A firefly 0%.
`Cc1ccc(C(=O)Nc2ncn(CC(=O)NCc3ccccc3F)n2)cc1` gave StopGo RLuc -1% and 2A firefly 65%[activator].
`Cc1ccc(NC(=O)CCCn2nc(C)c3sc4ccccc4c3c2=O)c(Cl)c1` gave StopGo RLuc 91%[activator] and 2A firefly -8%.
`Clc1ccc(-c2ccc(CNCC3CCNCC3)o2)c(Cl)c1` gave StopGo RLuc 28µM* and 2A firefly inconclusive.
`CCOC(=O)c1ccccc1NC(=O)CN(c1ccccc1OC)S(=O)(=O)c1ccc(C)cc1` gave StopGo RLuc 35%[activator] and 2A firefly -6%.
Cc1ccc(S(=O)(=O)N2CCC(Oc3ccc(-n4cnnn4)cc3)CC2)cc1 was read as StopGo RLuc -9% and 2A firefly -13%.
Screening O=C(CSc1nc2ccccc2nc1Cc1ccc(Cl)cc1)N1CCN(c2ccccc2F)CC1 returned StopGo RLuc -7% and 2A firefly -9%.
Screening Cc1cc(Cl)ccc1NC(=O)C1CCCN(c2nnc(C)c3c(C)n(-c4ccccc4)nc23)C1 (stereo not given) returned StopGo RLuc 0% and 2A firefly -5%.

3 structures from above, ordered by number of heavy atoms, high to low.
Screening O=C(CSc1nc2ccccc2nc1Cc1ccc(Cl)cc1)N1CCN(c2ccccc2F)CC1 returned StopGo RLuc -7% and 2A firefly -9%.
`Cc1ccc(NC(=O)CCCn2nc(C)c3sc4ccccc4c3c2=O)c(Cl)c1` gave StopGo RLuc 91%[activator] and 2A firefly -8%.
Cc1ccc(S(=O)(=O)N2CCC(Oc3ccc(-n4cnnn4)cc3)CC2)cc1 was read as StopGo RLuc -9% and 2A firefly -13%.
